Screening results as filed in PubChem BioAssay.
PMP22 txn: PMP22 gene transcription modulation | hit rate 2% among 43,000 | Potency, µM (series often up to 57.5 µM), for inactives: top-dose activity change, negative = inhibition, most hits filed as inhibitors | S16 Pmp22-F2sN Schwann cells (luciferase reporters placed in the Pmp22 gene), FLuc/NLuc coincidence luminescence, 24 h; active = clear falling dose curves in both reporters; inconclusive = both reporters move, but less clearly or upward; inactive = either reporter flat; the % is the NLuc reporter signal; note: % is set by controls: 0 for no effect and ±100 for the full control effect; some results filed as inactive show a strong effect at the top dose
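S16 Schwann cells carrying FLuc/NLuc coincidence reporter in the Pmp22 3' UTR treated with compound 24 h at 37C; FLuc then NLuc luminescence read sequentially by dual-luciferase reagents.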
HTT prom inh: inhibits huntingtin promoter activity. HEK293 HTT promoter firefly luciferase reporter (activity 0% = vehicle and -100% = no light), 24 h. Potency, µM (series often up to 57.5 µM), for inactives: at the top dose activity change, negative = inhibition, most hits filed as inhibitors. hit rate 0.93% among 48,000; active = well fitted inhibition curve with a large enough effect; inconclusive = small, poorly fitted or top-dose-only effect; inactive = no such curve, though single readings can be large or run the other way; note: nearly all actives have a fitted effect of over 50% in size
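Quantitative HTS used concentration series of up to 57.5 uM final on HEK293 luciferase reporter cells, 24 h at 37 degrees C. Readout was Dual-Glo firefly luminescence.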
* = called active by the depositor; ? = inconclusive; nt = no result given; [ ] = another dose, or the depositor's remark. Potency is the fitted concentration of half-maximal effect.

Screens in order: PMP22 txn	HTT prom inh
> COc1ccccc1N1CCN(C(=O)c2ccc3c(c2)N(Cc2cc(C)ccc2C)C(=O)c2ccccc2S3(=O)=O)CC1
 : -23%	?
> Cc1ccc(C)c(N2CCN(C(=O)C3CCN(c4nc5ccc(C)cc5[nH]4)CC3)CC2)c1
 : ?	?
> Brc1ccc(-c2cn3cc(Cc4ccccc4)sc3n2)cc1
 : 0%	35%[activator]
> COc1ccc(Cl)cc1NC(=O)CN1C(=O)COc2ccc(S(=O)(=O)NC3CCCC3)cc21
 : -15%	-1%
> CC(C)c1nc2ccc(C(=O)NC(C)c3ccccc3)cc2o1 (stereo unspecified)
 : -3%	10%
> Cc1ccc(CNC(=O)CCCCn2c(=O)c3ccccc3n(Cc3ccc(C)cc3)c2=O)cc1
 : -12%	-7%
> Cc1c(-c2nnc(SCC(=O)Nc3ccc(Cl)cc3)o2)nnn1-c1ccc(F)cc1
 : -21%	11%
> O=c1oc2ccccc2cc1-c1cn2cc(Cc3cc(Cl)ccc3Cl)sc2n1
 : -12%	-5%
> CCOC(=O)c1cc(NC(=O)c2ccc(C)cc2)c(=O)n2c1oc1ccccc12
 : -23%	-7%
> O=C(NCCCN1CCCCC1)c1ccc2c(c1)sc1nc(-c3ccc(F)cc3)cn12
 : ?	-9%
> COc1ccc(-c2noc(-c3cccnc3N3CCN(c4ccc(OC)cc4)CC3)n2)cc1
 : -14%	18%
> CCOc1ccc(NC(=O)Cn2c(=O)cc(C)c3c(C)nn(-c4ccc(CC)cc4)c32)cc1
 : 4%	6%
> Cc1cccc(NS(=O)(=O)c2ccc(-n3cccn3)cc2)c1C
 : ?	?
> Cc1ccc(S(=O)(=O)c2nc(S(C)(=O)=O)sc2NCc2ccccc2)cc1
 : -16%	?
> COc1ccc2[nH]c(=O)c(CN(C(=O)c3cccc(Cl)c3)c3cccc(C)c3)cc2c1
 : -15%	-9%
> COc1ccc(-c2noc(CCC(=O)N(C)c3cc(Cl)ccc3OC)n2)cc1
 : -29%	?
> CCC(=O)Nc1cc(-c2nc3cc(C)cc(C)c3o2)ccc1C
 : -7%	47%[activator]
> Cc1ccc(NC(=O)/C=C/c2ccc(Cl)cc2)c(Br)c1
 : -20%	1%
> COc1ccc(C(=O)Nc2onc3c2CCCC3)cc1
 : 8%	2%
> COc1ccc(N2CC(NC(=O)COc3ccc4ccccc4c3)CC2=O)cc1 (stereo unspecified)
 : -5%	-20%
> COc1ccc(C2C=C(c3ccc(C)cc3)Nc3c(C(=O)Nc4ccccc4)cnn32)cc1 (stereo unspecified)
 : ?	?
> Cc1ccc(NC(=O)CN2C(=O)COc3ccc(S(=O)(=O)N4CCOCC4)cc32)cc1N(C)C
 : -6%	-4%
> COc1ccc2c(c1)c(CC(=O)Nc1cc(C)c(OC)c(C)c1)c(C)n2C(=O)c1ccc(Cl)cc1
 : ?	-23%
> O=C(CCSCc1cnn(-c2ccccc2)c1-n1cccc1)NCc1ccc(Cl)cc1
 : ?	?
> CCc1ccc(NC(=O)N(Cc2ccc(C)cc2)Cc2cccn2-c2nnc(N3CCCC3=O)s2)cc1
 : -38%	-12%
> O=C(Cn1ncc2c1-c1ccccc1OC2)N1CCN(c2ccccc2F)CC1
 : ?	-27%
> CC(CN(C)C)C(C)(O)Cc1ccc(Cl)cc1 (stereo unspecified)
 : nt	8%
> CCC(Sc1nc2ccccc2c2nc(-c3ccccc3)nn12)C(=O)Nc1cccc(OC)c1 (stereo unspecified)
 : 13µM*	7%
> Cc1ccccc1OCC(=O)Nc1ccccc1C(=O)OCc1cc(=O)n2c(C)csc2n1
 : ?	2.2µM*
> CC(C)c1ccc(NC(=O)CC2NCCNC2=O)cc1 (stereo unspecified)
 : 1%	14%
> CCc1ccccc1N(C)S(=O)(=O)c1ccc2c(c1)C(C)(C)C(=O)N2C
 : -24%	-29%
> CC1CCN(c2csc3ccc(F)cc3c2=O)CC1
 : -26%	18%
> Cc1nn(CCC(=O)N2CCN(c3ccccc3)CC2)c(C)c1S(=O)(=O)N1CCCC1
 : -35%	-27%
> CCCCNc1ccc(C(=O)OCCN(CC)CC)cc1
 : nt	-2%
> O=C(CCOc1ccccc1)N(Cc1cccnc1)c1nc2ccc(Cl)cc2s1
 : ?	-9%
> COC(=O)c1ccccc1NC(=O)Cn1c(CCC(=O)O)ccc1-c1ccc(C)cc1
 : -8%	-6%
> O=C(Nc1c(C(=O)N2CCN(c3ccc(F)cc3)CC2)oc2ccccc12)c1c(F)cccc1F
 : 10%	?
> CCCNC(=O)c1cnc2c(-c3ccc(OCC)c(OCC)c3)c(C)nn2c1-c1ccccc1
 : -1%	?
> COC(=O)c1cc(NC(=O)c2ccc3c(c2)NC(=O)c2ccccc2S3)cc(C(=O)OC)c1
 : ?	-20%
> O=S(=O)(c1ccccc1F)N1CCC(Oc2ccc(-n3cnnn3)cc2)CC1
 : ?	?
> Cc1ccc(S(=O)(=O)N(CC(=O)Nc2c(C)cccc2C)c2cccc(Cl)c2)cc1
 : ?	?
> O=C(NCc1ccc(F)cc1)c1cc(-c2ccc(Cl)cc2)n[nH]1
 : 2%	-6%
> Cc1ccc(C(=O)Nc2cccc(-c3nc4cccnc4s3)c2C)cc1
 : 12%	-25%
> COc1ccc(Cl)cc1C(=O)NCc1nc(-c2cccc(C)c2)no1
 : -18%	?
> Cc1oc2ncn(CC(C)C)c(=O)c2c1C(=O)Nc1cc(F)ccc1F
 : ?	0%
> CCOc1ccc(C(=O)Nc2cccc(NC(=O)c3ccco3)c2)cc1Cl
 : -47%	3%
> CN(C(=O)Cn1cnc2onc(-c3ccc(F)cc3)c2c1=O)c1ccccc1Cl
 : ?	-13%
> Cc1cc(C)n(-c2nnc(Nc3ccc(C)c(C)c3)c3ccccc23)n1
 : ?	-21%
> CC(=O)N1c2ccc(S(=O)(=O)N3CCC(C(=O)Nc4cccc(Cl)c4C)CC3)cc2CC1C (stereo unspecified)
 : ?	?
> COc1ccc(C2c3c(-c4ccc(F)cc4)n[nH]c3C(=O)N2c2ccccc2)cc1OC (stereo unspecified)
 : ?	-2%[11.5 µM]

Further records.
Screens in order: PMP22 txn	HTT prom inh
> COCCCNC(=O)c1ccc(-n2c(-c3ccccc3)cc3c2CCCCC3)cc1
 : -132%	10%
> CSc1cccc(NC(=O)CN(c2ccccc2)S(=O)(=O)N(C)C)c1
 : -7%	-2%
> CCn1c2ccccc2c2cc(NC(=O)COc3cccc(C)c3)ccc21
 : ?	-4%
> Cc1ccc(N(CC(=O)Nc2ccc(Br)cc2)S(=O)(=O)c2cccs2)cc1
 : ?	-11%
> CCc1ccccc1NCc1nnc2n1CCCCC2
 : -26%	-8%
> COC(=O)c1ccccc1NC(=O)CSc1n[nH]c(C)n1
 : -2%	-9%
> Cc1ccc(CN(Cc2ccco2)C(=O)COc2cccc(C)c2C)o1
 : ?	?
> COc1ccc(-c2cc(C(=O)Oc3cccc(C)c3)c3ccccc3n2)cc1
 : 0%	2%
> Cc1ccc(NC(=O)CN2C(=O)CSc3ccc(S(=O)(=O)N4CCCC4)cc32)c(C)c1
 : 8%	-18%
> CC(C)=CCC[C@@](C)(O)[C@H]1CC=C(C)CC1
 : nt	14%

Marked active in HTT prom inh, among the entries above:
structure	HTT prom inh
Cc1ccccc1OCC(=O)Nc1ccccc1C(=O)OCc1cc(=O)n2c(C)csc2n1	2.2µM*

Carrying on:
Screens in order: PMP22 txn	HTT prom inh
> Cc1ccc(Cl)cc1N1CCN(C(=O)CCSCc2ccccc2F)CC1
 : 2%	-23%
> Cc1ccc(CNC(=O)CCS(=O)(=O)c2cc3c(cc2Cl)NC(=O)CO3)cc1
 : -16%	-2%
> CCCCCCn1c(/C=C/c2ccccc2)nc2ccccc21
 : -50%	33%[activator]
> CCOc1ccc(-c2cc3nc(C4CCN(C(=O)OC(C)(C)C)CC4)c(C(=O)Nc4ccc(C)cc4C)cn3n2)cc1
 : -7%	?
> COc1cc(OC)cc(-n2c(=O)c3ccccc3n(Cc3ccccc3C#N)c2=O)c1
 : -6%	-16%
> CC(=O)c1ccc(NC(=O)CCn2nc(C)c(S(=O)(=O)N3CCC(C)CC3)c2C)cc1
 : 9%	-25%
> CCOC(=O)c1c(NC(=O)C(C)Sc2cn(CCNC(=O)c3ccc(OCC)cc3)c3ccccc23)sc2c1CCC2 (stereo unspecified)
 : 1%	?
> CN(C)CCNC(=O)Cn1nc(N2CCN(c3ccccc3)CC2)ccc1=O
 : 5%	12%
> CC/C(=C(\c1ccccc1)c1ccc(OCCN(C)C)cc1)c1ccccc1
 : nt	-16%
> CCCCNC(=O)CCCn1c(=O)c2ccccc2n(Cc2ccc(Cl)cc2)c1=O
 : ?	-12%
> Cc1ccccc1CN1c2ccccc2S(=O)(=O)c2ccccc21
 : ?	0%
> Cc1nc(CC(=O)Nc2ccc(C(N)=O)cc2)cs1
 : 3%	2%
> CCOc1ccccc1-n1c(N)c(C(=O)OC)c2nc3ccccc3nc21
 : -14%	-18%
> CCOC(=O)c1c(NC(=O)COc2cc(C)ccc2C(C)C)sc2c1CCCC2
 : -20%	-12%
> CCCCSCCCNC(=O)CN1C(=O)COc2ccc(S(=O)(=O)N3CCC(C)CC3)cc21
 : -4%	-20%
> COc1ccc(CCNC(=O)C(=O)NCC(c2ccc3c(c2)OCO3)N2CCOCC2)cc1OC (stereo unspecified)
 : -12%	-5%
> CCOC(=O)c1ccc(NC(=O)Cn2c3ncccc3c(=O)n2-c2ccc(C)c(C)c2)cc1
 : 10%	?
> Cc1cc(-c2ccc(C)c(S(=O)(=O)N3CCN(c4cccc(C(F)(F)F)c4)CC3)c2)on1
 : -9%	?
> O=C(NCCc1csc(-c2ccc(C(F)(F)F)cc2)n1)C(=O)Nc1cc(F)ccc1F
 : ?	6%
> COc1cccc(CNC(=O)C2CCN(c3nn4c(=O)cc(C)nc4s3)CC2)c1
 : -10%	-8%

In the list so far, 2 have a CF3 group:
Screens in order: PMP22 txn	HTT prom inh
> Cc1cc(-c2ccc(C)c(S(=O)(=O)N3CCN(c4cccc(C(F)(F)F)c4)CC3)c2)on1
 : -9%	?
> O=C(NCCc1csc(-c2ccc(C(F)(F)F)cc2)n1)C(=O)Nc1cc(F)ccc1F
 : ?	6%

Additional records
Screens in order: PMP22 txn	HTT prom inh
> O=c1[nH]c(=O)n([C@H]2C[C@H](O)[C@@H](CO)O2)cc1F
 : nt	-18%
> CCn1cc(C(=O)NCc2ccccc2Cl)c(=O)c2cc(S(=O)(=O)N3CCCCC3)ccc21
 : -11%	-9%
> Cc1ccc(Cl)cc1N1CCN(C(=O)C2CCN(S(=O)(=O)c3cccc4nonc34)CC2)CC1
 : ?	?
> CC(=O)c1cccc(NC(=O)c2noc3c2CC(C)CC3)c1 (stereo unspecified)
 : -20%	50%[activator]
> CCC(C)NC(=O)CSc1nc2n[nH]c(C)c2c(=N)n1-c1ccc(C)c(Cl)c1 (stereo unspecified)
 : -3%	?
> O=C1CN(C(=O)c2ccc(S(=O)(=O)N3CCCC3)cc2)C(c2ccc(F)cc2)c2cc(F)ccc2N1 (stereo unspecified)
 : -2%	-23%
> CCC(=O)N1CCc2cc(S(=O)(=O)NCCC(=O)Nc3ccc(CC)cc3)ccc21
 : -2%	?
> CCc1ccc(-n2c(=O)c3sc4ccccc4c3n(CC(=O)N3CCCC3)c2=O)cc1
 : -3%	-10%
> CCN(CC)c1nc(-c2ccccc2Cl)c2cc(Br)ccc2n1
 : -7%	-8%
> CCOC(=O)c1ccc(NC(=O)CSc2nc3c(c(=O)[nH]2)CN(Cc2ccccc2)CC3)cc1
 : ?	-22%
> Cc1ccc(NC(=O)CCS(=O)(=O)c2ccc3c(c2)oc(=O)n3C)c(Br)c1
 : ?	-17%
> O=C(Nc1ccc(F)c(Cl)c1)c1cc(S(=O)(=O)N2CCc3ccccc3C2)ccc1F
 : 12%	?
> COc1cccc(CNC(=O)CCCn2nc(C)c3c(C)n(-c4ccc(C)cc4)nc3c2=O)c1OC
 : -21%	-26%
> CCOc1cc(-c2nnc(SCC(=O)NCCCOC)nc2-c2ccc(OC)c(OCC)c2)ccc1OC
 : ?	-3%
> CC(C)Cc1ccc(S(=O)(=O)NCc2nc3cccnc3n2Cc2ccccc2)cc1
 : -15%	?
> CCOC(=O)C1=C(CN2CCN(c3ccc(OC)cc3)CC2)NC(=O)NC1c1ccc(OC)cc1 (stereo unspecified)
 : -18%	?
> Cc1ccc(C)c(NC(=O)Cn2cc(C(=O)c3cccs3)c3ccccc32)c1
 : ?	?
> Cc1c(Cl)cccc1Nc1nn2c(=O)c3ccc(C(=O)NCCc4ccccc4)cc3nc2s1
 : 10µM*	-13%
> CCCCCCOc1ccc(C2C(=O)N(C3CCCCC3)CC(=O)N2C2CCCCC2)cc1 (stereo unspecified)
 : -10%	-11%
> COc1cc2[nH]c(=O)n(CCCC(=O)NCc3ccc(Cl)cc3)c(=O)c2cc1OC
 : -22%	-3%
> Cc1nn2c(=O)cc(COC(=O)c3ccccc3NC(=O)C(C)C)nc2s1
 : ?	-7%
> CCOC(=O)c1cnc2c(cnn2CC)c1NN=C(C)C
 : nt	3%
> C[C@@H](NCc1cc2ccccc2[nH]1)c1cccc2ccccc12
 : nt	-10%

One compound at a time, as listed above. Order of screens: PMP22 txn	HTT prom inh
CN(C(=O)Cn1cnc2onc(-c3ccc(F)cc3)c2c1=O)c1ccccc1Cl across the screens: ?	-13%
CC(=O)c1cccc(NC(=O)c2noc3c2CC(C)CC3)c1 (stereo unspecified) across the screens: -20%	50%[activator]
